# Screening results deposited in PubChem by several laboratories.
# BJeLR lethal: BJeLR cell viability loss; BJeLR (HRASV12) viability, CellTiter-Glo ATP luminescence, 48 h; reference of the scale not given here; inhibition, % (no concentration beside the values); hit rate 0.17% among 300,000;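 active = replicate mean above 50%; inconclusive = above 50% but judged a plate artefact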;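 note: 50 nL library stock added to about 25 µL; numbers are from one replicate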
# PrP UTR inh: inhibition of PrP 5' UTR reporter expression; inhibition, % (no concentration beside the values); hit rate 0.35% among 340,000; cell-based PrP 5' UTR mRNA reporter, plate reader;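 active = every replicate at 50% or more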;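 note: 0 = median of the neutral control wells; tested in H4 reporter cells; numbers are from one replicate; inactives centre near -14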
# RN4220 kill: S. aureus RN4220 growth inhibition | OD600, 16 h | hit rate 0.33% among 330,000 | inhibition, % (test concentration not listed);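 active = z-score of -3 or lower and OD600 up to 0.18 on both plates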;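 note: plate controls were untreated cells for no effect and reference antibiotic for full effect; stock transfer was 100 nL into about 80 µL; one replicate is shown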
# Sa ugtP lethal: kills S. aureus RN4220 lacking UgtP | S. aureus RN4220 ugtP deletion, OD600 growth, 16 h; some inactives read as strong as hits | growth inhibition, % (concentration not given with the values) | hit rate 0.54% among 330,000 | AID 1259309;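 active = z-score under -3 and OD600 up to 0.15 on both plates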;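 note: plate controls were untreated wells for no effect and antibiotic for full effect; wells of about 80 µL received 100 nL stock; the first replicate is given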
# Bead autofluor: flagged as autofluorescent in microsphere protease counterscreen; compound autofluorescence counterscreen, microsphere flow cytometry; active compounds read high; fluorescence intensity (test concentration not listed); hit rate 3.1% among 360,000;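 active = at least 3 SD above the mean of all compounds, about 16000 in these data; inconclusive = too few beads counted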;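 note: 100 nL of 1 mM stock went into each well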
# Mtb hypoxia rep: inhibitors of hypoxia-regulated fluorescent reporter in Mycobacterium tuberculosis. M. tuberculosis hypoxia-regulated fluorescent reporter, fluorescence. fluorescence inhibition, % (test concentration not listed). hit rate 0.1% among 300,000;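 active = 35 to 45% if threefold the growth effect, above 45% if 1.5-fold the growth effect; inactive = the rest, general growth blockers included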;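 note: wells of about 50 µL received 100 nL stock; 0% = vehicle wells and 100% = reference inhibitor wells; whole bacteria with a GFP reporter of the hypoxia response; strong numbers were not always called active; many hits fall short of the cut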
# Mtb hypoxia rep growth: further read-out of Mtb hypoxia rep, marked with its call; growth inhibition, %; measured here: M. tuberculosis growth (absorbance);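 0% = vehicle and 100% = reference antibiotic; read after six days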
# Numbers without * were called inactive; u = inconclusive; x = no result given.
mol	BJeLR lethal	PrP UTR inh	Sa ugtP lethal	RN4220 kill	Mtb hypoxia rep	Mtb hypoxia rep growth	Bead autofluor
CCc1nnc(NS(=O)(=O)c2ccc(N=Cc3c(C)[nH]n(-c4cccc(Cl)c4)c3=O)cc2)s1	5.4	-25.5	10.6	6.4	11.0	8.8	2093
CCCC(N)CCCCCC(=O)O (stereo not drawn)	-3.0	-20.9	-0.5	-0.4	3.1	-1.4	10686
Cc1cc(OCC(=O)Nc2ccc3oc(=O)ccc3c2)ccc1Cl	0.7	-19.4	-1.5	3.0	10.6	5.6	3465
S=C(NCC1CCCO1)Nc1ccccc1Cl (stereo not drawn)	7.3	-4.1	2.2	1.7	13.6	1.9	2612
CC1(C)Oc2ccc3ccc(=O)oc3c2-c2cn[nH]c21	8.1	-2.5	6.9	20.2	-6.9	8.9	x
OCCOCCn1c(C(CO)Nc2nc(-c3cccc(Br)c3)cs2)nc2ccccc21 (stereo not drawn)	0.8	-31.3	4.0	1.6	-6.8	-1.5	4353
C/C=C1/CN2C3CC1C(CO)(C(=O)OC)C2Cc1c3n(C)c2ccccc12 (stereo not drawn)	8.4	31.4	-2.9	5.6	x	x	5757
CC1(NC(=O)c2cccc(S(=O)(=O)N3CCN(c4ccccc4)CC3)c2)CCS(=O)(=O)C1 (stereo not drawn)	3.6	1.5	-3.4	-0.1	-15.2	2.0	5437
ON=C1CCCCc2sccc21	x	x	5.9	1.2	-2.9	-6.9	x
COc1ccc(NC(=O)C(=O)NCC(=O)Nc2cc(OC)ccc2OC)cc1	0.7	-6.0	-11.8	0.7	-13.2	2.9	6780
CC(O)c1cccc(NC(=O)CC(c2ccccc2)c2ccccc2)c1 (stereo not drawn)	5.9	-2.0	7.6	1.1	2.9	11.9	3866
Cc1ccc(-c2nnn(CC(=O)N(CC(=O)NCc3ccccc3)c3cccc(C)c3C)n2)o1	-25.8	-39.7	11.2	0.9	5.9	3.7	11098

# Just Sa ugtP lethal, for some of the entries so far:
Structure	Sa ugtP lethal
CC1(NC(=O)c2cccc(S(=O)(=O)N3CCN(c4ccccc4)CC3)c2)CCS(=O)(=O)C1 (stereo not drawn)	-3.4
ON=C1CCCCc2sccc21	5.9
COc1ccc(NC(=O)C(=O)NCC(=O)Nc2cc(OC)ccc2OC)cc1	-11.8

# Further records
mol	BJeLR lethal	PrP UTR inh	Sa ugtP lethal	RN4220 kill	Mtb hypoxia rep	Mtb hypoxia rep growth	Bead autofluor
CCOC(=O)c1oc2ccccc2c1CSc1nnnn1-c1ccc(OC)cc1	2.7	-13.1	-6.2	11.9	2.7	12.2	21747*
COc1cccc(C(=O)NCCS(=O)(=O)N2CC(C)CC(C)C2)c1 (stereo not drawn)	11.2	-21.5	x	x	x	x	5993
CCCc1c(NC(=O)Nc2ccc(Cl)cc2Cl)cnn1-c1ccccc1	11.1	-23.8	-10.4	1.4	-6.2	5.0	5438
O=C(COc1ccc(Cl)cc1)Nc1ccc(C(=O)NCc2cccnc2)cc1	87.3*	-12.7	-2.2	-1.0	3.3	9.0	10237
COc1ccc(C(=O)n2nc(-c3ccc(OC)cc3)nc2N)cc1	-0.1	-11.5	x	x	x	x	2035
C=C(C)CN(CC)C(=O)CSc1ccc(S(=O)(=O)N2CCN(Cc3ccccc3)CC2)cn1	x	-23.0	5.4	1.5	3.7	3.4	3596
Cc1nn(-c2cc(C(F)(F)F)ccc2Cl)c2nc(C(F)(F)F)[nH]c(=O)c12	-4.4	-33.3	10.2	10.9	0.0	3.3	11145
CC(NC(=O)c1ccco1)C(=O)OCC(=O)c1ccc(Cl)s1 (stereo not drawn)	6.3	-4.6	5.4	4.3	2.9	-5.7	4620
Cc1ccccc1CSCc1nc(N)nc(Nc2ccccc2C)n1	-3.7	-35.7	2.3	6.5	12.5	5.1	4593
CCOc1cc(/C=C2/C(=N)N3C(=NC2=O)SN=C3S(C)(=O)=O)ccc1OS(=O)(=O)c1ccccc1	-5.0	-26.7	8.6	0.1	0.1	-4.6	5416
CC(C)(C)c1ccc(C(=O)NCc2cccnc2)cc1	-7.5	-24.0	-0.4	2.4	13.5	12.3	9591
COc1cccc(/C=C/C(=O)c2c(O)cc(C)oc2=O)c1O	-12.3	-2.5	0.9	8.4	16.0	6.8	3053
CCCc1nnc(NC(=O)CCC(=O)N2CCN(Cc3ccccc3)CC2)s1	8.6	3.1	2.9	3.4	3.0	-0.8	4450
COc1ccc(OCC(=O)Nc2ccc(N3CCN(C(=O)c4ccccc4)CC3)c(Cl)c2)cc1	-2.1	-34.0	2.3	2.9	6.6	-1.9	6043
O=C(CCCCCn1c(=S)[nH]c2ccc(N3CCOCC3)cc2c1=O)NCc1ccccc1	-0.1	-17.4	-4.2	3.3	2.5	-0.8	8876
Cc1sc2nc(SCc3nc4ccccc4[nH]3)n(Cc3ccco3)c(=O)c2c1C	-12.2	-10.1	4.0	8.8	12.2	8.8	6805
Cc1cccc(C(=O)OCC(=O)NC2CCCCCCC2)c1	x	4.8	-1.9	1.4	0.1	-1.2	x
Cc1ccc(NC(=O)c2ccc(-n3cccn3)nc2)cc1	4.3	-29.0	4.8	3.1	10.2	-1.0	4497
CCOc1ccccc1NC(=O)CSc1nnc(CNC(=O)c2cc(OC)c(OC)c(OC)c2)o1	-9.2	-3.0	13.5	4.0	-2.1	-9.7	4676
Cc1cccc(C2=NN(c3ccccc3)[C@H](CO)[C@H]2c2ccccc2)c1	x	-11.1	7.3	-11.0	4.6	-0.8	3945
Nc1c(S(=O)(=O)c2cccs2)c2nc3ccccc3nc2n1CCc1ccccc1	0.2	x	-12.2	-2.6	-5.4	7.0	x
O=C(Nc1ccccc1)C1=C[C@@H](c2csc3ccccc23)C[C@@H](OCc2ccc(CO)cc2)O1	-8.4	-22.3	x	x	x	x	2892
CSCCC(NC(=O)c1ccccc1)C(=O)N1CCN(C(c2ccccc2)c2ccccc2)CC1 (stereo not drawn)	-5.4	-2.0	17.2	-16.2	4.9	7.3	u
Cc1ccc(-c2nc3ccccn3c2C=O)cc1	4.0	-76.3	8.8	9.4	-4.4	7.4	4247
O=C(Cn1nc(Cc2ccncc2)c2ccccc2c1=O)Nc1cccnc1Cl	22.8	-6.6	2.6	0.6	9.2	5.7	4714
CC1=NNC(=O)C1CCC(=O)N/N=C/c1ccc(Cl)cc1Cl (stereo not drawn)	-1.2	-20.1	x	x	x	x	6243
CCN(c1ccccc1)S(=O)(=O)c1c(C)noc1C	x	1.8	4.3	7.3	8.1	2.0	4905
O=C(COC(=O)c1cc([N+](=O)[O-])ccc1Cl)NCCc1ccccc1	x	-23.8	3.6	2.6	0.7	3.8	8060
COc1ccc(NS(=O)(=O)c2coc(C(N)=O)c2)cc1Cl	-9.1	-7.0	2.2	-0.4	x	x	5411
Cc1ccc(S(=O)(=O)NC(=NC2CCCCC2)c2ccc(F)cc2)cc1	10.5	-4.8	1.4	-0.6	6.9	-1.8	4411
COc1cc(NC(=S)N2CCN(C)CC2)c(OC)cc1Cl	-3.4	-14.5	0.7	4.3	16.9	9.7	2079
Cc1nc2ncnn2c(C)c1CCC(=O)N1CC(C)CC(C)C1 (stereo not drawn)	6.5	-13.5	-3.2	-1.3	8.5	0.2	9912
COc1cc2nc(Nc3ccc(F)cc3)nc(N)c2cc1OC	7.8	4.6	1.9	9.1	17.0	10.9	4203
O=C(/C=C/NNC(=O)c1ccccc1)c1ccc([N+](=O)[O-])cc1	11.2	5.1	2.9	0.6	4.1	6.3	4048
O=C(CSc1ccccn1)N/N=C/c1cc([N+](=O)[O-])ccc1O	-16.1	-4.4	x	x	x	x	4824
CCOc1ccc(C(C(=O)NC2CCCC2)N(C(=O)c2snc(C(N)=O)c2N)C2CCCC2)cc1 (stereo not drawn)	2.2	-29.9	4.5	5.2	0.2	-5.1	5313

# 2 entries from above, field by field.
Structure: COc1ccc(OCC(=O)Nc2ccc(N3CCN(C(=O)c4ccccc4)CC3)c(Cl)c2)cc1
  BJeLR lethal: -2.1 | PrP UTR inh: -34.0 | Sa ugtP lethal: 2.3 | RN4220 kill: 2.9 | Mtb hypoxia rep: 6.6 | Mtb hypoxia rep growth: -1.9 | Bead autofluor: 6043

Structure: COc1ccc(C(=O)n2nc(-c3ccc(OC)cc3)nc2N)cc1
  BJeLR lethal: -0.1 | PrP UTR inh: -11.5 | Sa ugtP lethal: x | RN4220 kill: x | Mtb hypoxia rep: x | Mtb hypoxia rep growth: x | Bead autofluor: 2035

# (listing goes on)
mol	BJeLR lethal	PrP UTR inh	Sa ugtP lethal	RN4220 kill	Mtb hypoxia rep	Mtb hypoxia rep growth	Bead autofluor
Cc1ccccc1NC(=O)c1nc2nccc(C)n2n1	-0.5	-20.5	7.0	16.2	-2.5	9.9	4040
CCOCCCNC(=S)Nc1ccc2nc(N3CCN(CC)CC3)cc(C)c2c1	-13.3	-16.4	14.8	-0.8	-4.5	9.9	3489
CCn1c(COc2ccc(=O)n(-c3ccccc3)n2)nnc1SC	-3.0	-6.9	16.4	4.3	10.8	3.3	4153
O=C(NN=Cc1ccco1)c1cncc(Br)c1	x	x	2.0	3.4	-8.4	-2.3	x
O=C(c1ccc(CS(=O)Cc2ccc(Cl)cc2)o1)N1CCN(c2ccccn2)CC1 (stereo not drawn)	-4.3	-3.6	22.5	1.1	1.4	9.4	5532
Cc1ccc(/C=C/C(=O)N2CC(=O)Nc3ccccc32)o1	-1.8	-11.3	5.5	12.4	6.8	12.5	4409
CN(C)S(=O)(=O)c1cc(C(=O)Nc2ccccc2C(=O)NC2CC2)ccc1Cl	x	7.4	-0.3	0.7	-12.2	-13.4	u
Cc1ccsc1C(=O)Nc1ccc(F)c([N+](=O)[O-])c1	-8.0	-32.9	5.2	-2.4	4.0	5.2	10176
Cn1nc(C(F)(F)F)cc1-c1ccc(/C=C(\C#N)C(=O)c2ccccc2)s1	2.0	-61.6	x	x	x	x	4129
O=C(Nc1ccc(Oc2cccnc2)cc1)C1CCN(Cc2ccc(F)cc2)CC1	6.7	-0.7	7.2	2.6	-0.8	-2.1	5032
CC(=O)N1C(C(=O)O)CSC1c1cccc(C)c1 (stereo not drawn)	-4.1	-13.8	9.2	-3.0	7.1	4.3	2307
CCCCN1C(=O)C(NC(C)=O)c2cc(Br)ccc21 (stereo not drawn)	1.0	-21.9	9.5	6.4	x	x	2384
CCOc1ccc(CCNC(=O)C2CCC(=O)N2CCc2ccccc2)cc1OCC (stereo not drawn)	x	-20.4	12.7	5.3	8.2	5.4	8189
O=C(NCCC(=O)N1CCCC(C(F)(F)F)C1)c1ccccc1Cl (stereo not drawn)	-10.1	-7.1	4.4	2.3	4.1	10.8	5804
COCCOC(=O)C1=C(C)NC(=O)NC1c1ccc(OC(=O)c2ccco2)c(OC)c1 (stereo not drawn)	14.7	-16.2	10.6	5.5	6.0	10.6	2376
O=C(COC(=O)Cc1ccccc1F)Nc1ccc2c(c1)OCCO2	1.3	-49.7	-6.9	3.8	7.0	6.1	2492
Cc1nn(C)cc1/C=C/C(=O)c1cccs1	-4.4	-83.6	6.1	7.6	8.7	5.0	9107
COC(=O)[C@@]1(C)CC[C@]2(C)CC[C@@]3(C)C(=CC(=O)C4[C@@]5(C)CCC(O)C(C)(C)C5CC[C@]43C)C2C1 (stereo partly drawn)	x	x	-9.6	6.6	7.2	9.0	x
Cc1ccc(-c2nc(CS(=O)(=O)CC(=O)NCCCN3CCN(C)CC3)c(C)o2)cc1	-9.6	-10.0	0.4	-7.2	11.9	12.7	5719
Cc1ccc(CNC(=O)CNS(=O)(=O)c2ccc3nc(C)sc3c2)cc1	-5.5	-18.2	2.1	2.8	18.1	11.2	5011
CCOC(=O)C(=CNc1cc(C)nn1-c1ccccc1)C(=O)OCC	9.7	-10.6	-8.6	-7.5	-2.3	0.1	21382*
O=C(Nc1ccc(S(=O)(=O)N2CCCC2)cc1)c1cc(=O)c2ccccc2o1	2.1	-8.8	-1.0	5.5	2.3	0.2	3373
CC(C)(C)c1ccc(C(=O)N/C(=C\c2ccco2)C(=O)Nc2ccccc2C(=O)O)cc1	5.9	-16.2	-0.6	0.7	2.3	22.6	3805
O=C(NCCc1ccccc1F)C1CCCN(c2nc3ccccc3s2)C1 (stereo not drawn)	-7.4	-17.3	-0.6	2.7	4.1	-4.3	4098
CCOC(=O)C1C(C)=CC(=O)CC1c1ccco1 (stereo not drawn)	2.3	-13.1	-2.5	-8.1	4.5	4.7	3044
COC(=O)c1ccc(CN2CCCC(C(=O)Nc3cccc(-n4cccn4)c3)C2)cc1 (stereo not drawn)	6.0	6.3	1.4	-2.0	-3.3	2.0	7699
